# Mtb hypoxia inh = Mtb hypoxia fluorescent reporter inhibition; M. tuberculosis hypoxia-regulated fluorescent reporter, fluorescence; actives 0.1% (n = 300,000); fluorescence inhibition, % (concentration not given with the values);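 active = 35 to 45% if threefold the growth effect, above 45% if 1.5-fold the growth effect; inactive = the rest, general growth blockers included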;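 note: wells of about 50 µL received 100 nL stock; 0% = vehicle wells and 100% = reference inhibitor wells; whole bacteria with a GFP reporter of the hypoxia response; strong numbers were not always called active; many hits fall short of the cut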
# PrP UTR inh = inhibition of PrP 5' UTR reporter expression; cell-based PrP 5' UTR mRNA reporter, plate reader; inhibition, % (concentration not given with the values); actives 0.35% (n = 340,000); AID 488862;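 active = every replicate at 50% or more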;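 note: 0 = median of the neutral control wells; tested in H4 reporter cells; numbers are from one replicate; inactives centre near -14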
# Autofluor counter = compound fluorescence in toxin protease inhibitor counterscreen; fluorescence intensity (concentration not given with the values); actives 3.1% (n = 360,000); compound autofluorescence counterscreen, microsphere flow cytometry; hits give high values;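 active = at least 3 SD above the mean of all compounds, about 16000 in these data; inconclusive = too few beads counted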;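 note: 100 nL of 1 mM stock went into each well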
# RN4220 kill = S. aureus RN4220 growth inhibition; OD600, 16 h; inhibition, % (concentration not given with the values); actives 0.33% (n = 330,000); AID 1259311;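 active = z-score of -3 or lower and OD600 up to 0.18 on both plates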;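 note: plate controls were untreated cells for no effect and reference antibiotic for full effect; stock transfer was 100 nL into about 80 µL; one replicate is shown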
# BJeLR viability = BJeLR cell viability loss; BJeLR (HRASV12) viability, CellTiter-Glo ATP luminescence, 48 h; reference of the scale not given here; inhibition, % (test concentration not listed); AID 1554; actives 0.17% (n = 300,000);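 active = replicate mean above 50%; inconclusive = above 50% but judged a plate artefact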;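 note: 50 nL library stock added to about 25 µL; numbers are from one replicate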
# Sa ugtP lethal = compounds lethal to S. aureus RN4220 ugtP deletion mutant; OD600 growth, 16 h; some inactives read as strong as hits; actives 0.54% (n = 330,000); growth inhibition, % (no concentration beside the values); AID 1259309;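 active = z-score under -3 and OD600 up to 0.15 on both plates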;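 note: plate controls were untreated wells for no effect and antibiotic for full effect; wells of about 80 µL received 100 nL stock; the first replicate is given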
# Mtb hypoxia inh growth = further read-out of Mtb hypoxia inh, marked with its call; growth inhibition, %; measured here: M. tuberculosis growth (absorbance);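 0% = vehicle and 100% = reference antibiotic; read after six days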
# * = called active by the depositor; ? = inconclusive; · = no result given. Compounds as they come. About 3.9% of those tested had a hit in this group.
# Preview:
SMILES,Mtb hypoxia inh,Mtb hypoxia inh growth,PrP UTR inh,Autofluor counter,RN4220 kill,BJeLR viability,Sa ugtP lethal
Cc1ccc(/C=N/n2c(-c3ccncc3)n[nH]c2=S)o1,·,·,-17,2354,·,-5,·
COc1ccc(C(=O)C2CCCN(Cc3cn(C)nc3-c3ccccc3)C2)cc1F (stereo not drawn),-6,-8,-26,2549,6.8,-2,14
Cc1cccc(CCNC(=O)C2CCCN(S(=O)(=O)c3cnc[nH]3)C2)c1 (stereo not drawn),·,·,-21,4944,1.6,0,2
CCOC(=O)CNC(=O)Cn1cnc2c(oc3ccccc32)c1=O,1,-2,-18,5204,2.1,-6,3
CC(OC(=O)[C@@H](NC(=O)c1ccco1)C(C)C)C(=O)Nc1ncc(Cl)cc1Cl (stereo partly drawn),-1,0,-34,9342,4.0,·,1
NC(=O)c1cc2ccccc2oc1=NNC(=O)c1cccs1,10,9,·,·,3.0,·,-10
NC1=NC2(CCCCC2)N(c2ccc(F)cc2)C(N)=N1,1,11,-27,3563,8.2,1,9

# The whole of this part, repeating the preview:
SMILES,Mtb hypoxia inh,Mtb hypoxia inh growth,PrP UTR inh,Autofluor counter,RN4220 kill,BJeLR viability,Sa ugtP lethal
Cc1ccc(/C=N/n2c(-c3ccncc3)n[nH]c2=S)o1,·,·,-17,2354,·,-5,·
COc1ccc(C(=O)C2CCCN(Cc3cn(C)nc3-c3ccccc3)C2)cc1F (stereo not drawn),-6,-8,-26,2549,6.8,-2,14
Cc1cccc(CCNC(=O)C2CCCN(S(=O)(=O)c3cnc[nH]3)C2)c1 (stereo not drawn),·,·,-21,4944,1.6,0,2
CCOC(=O)CNC(=O)Cn1cnc2c(oc3ccccc32)c1=O,1,-2,-18,5204,2.1,-6,3
CC(OC(=O)[C@@H](NC(=O)c1ccco1)C(C)C)C(=O)Nc1ncc(Cl)cc1Cl (stereo partly drawn),-1,0,-34,9342,4.0,·,1
NC(=O)c1cc2ccccc2oc1=NNC(=O)c1cccs1,10,9,·,·,3.0,·,-10
NC1=NC2(CCCCC2)N(c2ccc(F)cc2)C(N)=N1,1,11,-27,3563,8.2,1,9
CCOC(=O)Nc1cc2c(cc1[N+](=O)[O-])-c1ccccc1C2=O,11,4,-44,3628,-3.3,·,-6
CC(OC(=O)c1cn(C)c2ccccc12)C(=O)N1CCCC1 (stereo not drawn),14,6,-9,2884,6.2,·,9
CCCn1c(SCC(=O)Nc2sc(C)c(C)c2C#N)nnc1C(C)C,15,12,-5,3778,12,1,-2
Cc1ccc(OCCC(=O)OCC(=O)NC2CCS(=O)(=O)C2)cc1 (stereo not drawn),13,-2,-34,5402,2.0,-15,3
Cc1cc(F)c(F)c(C(=O)N2CCN(C)CC2)c1Cl,·,·,-11,3449,-1.0,-6,1
C=CCOc1ccc(C2NC(=O)c3ccccc3O2)cc1 (stereo not drawn),-3,3,-19,4105,-5.1,-1,3
COc1ccc(N2CC(C(=O)N3CCc4ccccc43)CC2=O)cc1 (stereo not drawn),11,12,-13,5398,0.4,4,6
N#Cc1ccc(OC(=O)C2CCN(C3=NS(=O)(=O)c4ccccc43)CC2)cc1,12,6,-27,3723,3.9,·,7
O=C(Nc1cc(Cl)cc(Cl)c1)c1ccno1,3,10,-18,3872,2.0,2,7
O=c1[nH]c(O)c(Cc2ccc3c(c2)OCO3)c(=O)[nH]1,14,3,-28,5429,4.2,14,-3
O=C(CCCN1C(=O)/C(=C\c2ccco2)SC1=S)Nc1cccc2ccccc12,·,·,-33,2387,·,-15,·
O=C(C1CCN(c2ncnc3c2sc2cccc(F)c23)CC1)N1CCCC1,4,9,·,·,0.4,-5,8
Cc1ccn(CC(=O)N2CCCC(N3CCN(Cc4ccc5c(c4)OCO5)CC3)C2)n1 (stereo not drawn),15,3,-14,4614,4.3,-10,10
CN(Cc1cnn(C)c1)C(=O)c1cc2ccccc2oc1=O,-6,9,-18,2910,1.9,-13,-4
CCC1(c2ccc(F)cc2)NC(=O)N(CC(=O)NC2CCCC(C)C2C)C1=O (stereo not drawn),9,8,-7,2994,2.2,·,5
CN1CCN(C(=S)NCCc2ccccc2)CC1,5,6,-18,5714,3.6,-9,-2
CCOC(=O)[C@H]1O[C@@H]1C(=O)N[C@@H](CC(C)C)C(=O)NCCC(C)C,·,·,-3,4267,·,-4,·
CC(C)CN(C(=O)CCC(=O)OCc1ccc(Cl)cc1Cl)c1c(N)n(CC(C)C)c(=O)[nH]c1=O,-9,-7,-13,5818,2.7,7,0
COc1ccc(C2C(C(=O)NCCN(C)C)c3ccccc3C(=O)N2C)cc1OC (stereo not drawn),14,8,-17,3720,4.4,-3,4
Cc1ccc(C=C2C(Cl)=C(Cl)C(Cl)=C2Cl)cc1,15,4,·,·,97*,39,100*
CCOc1ccc(N=C/C=C/c2ccccc2)c(O)c1,·,·,-19,3275,-1.6,7,-5
COc1ccc(CNC(=O)C(C)N(C)Cc2cccc(F)c2)cc1 (stereo not drawn),-9,8,-1,3766,-0.6,-10,0
CC(=O)C1=C(O)C(=O)N(c2ccc(S(=O)(=O)Nc3nccs3)cc2)C1c1ccc([N+](=O)[O-])cc1 (stereo not drawn),13,4,-22,4522,3.9,-2,4
CCCCCCCCCCOC(=O)Cn1c(COc2ccc(C)cc2)[n+](C)c2ccccc21,·,·,-12,3013,·,14,·
Oc1ccc(C=NNC(=S)NC2CC3CCC2C3)cc1 (stereo not drawn),6,12,·,·,8.3,·,-6
O=C(N/N=C\c1cc(Br)cs1)C1COc2ccccc2O1 (stereo not drawn),·,·,-33,3131,·,17,·
Nc1nc(-c2ccccc2)c(N=Nc2ccc(Cl)cc2)s1,8,-5,11,1824,0.8,3,22
O=C(c1ccc2c(c1)OCO2)N1CCOCC1,8,-5,-12,10495,2.6,-4,5
COc1ccc(C2C(C#N)=C(/N=C/N3CCOCC3)OC3=C2C(=O)CC(C)(C)C3)cc1OC (stereo not drawn),·,·,-13,7903,·,9,·
CCn1cc(C2=NOC(C(=O)Nc3cccc(C(C)=O)c3)C2)c(C)n1 (stereo not drawn),4,-1,7,8442,-0.1,-4,-1
CCCc1cc(=O)[nH]c(SCC(=O)Nc2c(C)cccc2C)n1,-2,1,-21,11118,-1.4,-3,-4
COc1ccc(C2=NN(c3nc(-c4ccc(CNC(C)=O)cc4)cs3)C(c3ccco3)C2)cc1 (stereo not drawn),1,4,-20,6486,-5.8,-6,0
CN(C)C(CNC(=O)CN1C(=O)NC2(CCc3ccccc32)C1=O)c1ccco1 (stereo not drawn),0,12,-27,8983,3.6,-8,-4
Cc1cccc(-c2oc3ccc(-c4ccc5c(c4)OCO5)cc3c2-c2ccc(OC3CCCCO3)cc2)c1 (stereo not drawn),8,6,-24,3511,5.9,-1,0
COc1cc(S(=O)(=O)Nc2ccc3nc(C)sc3c2)ccc1NC(C)=O,3,7,-28,8656,-0.4,·,1
COC(=O)c1[nH]c2cccc(Cl)c2c1NC(=O)CN1CCN(CCO)CC1,-1,3,·,8019,6.0,-1,-4
COc1ccc(C(=O)OCC(=O)NC(=O)NC2CCCC2)cc1OC,-4,-4,10,3873,4.6,·,3
COc1ccc(C2SCCN2S(=O)(=O)c2ccc(NC(C)=O)cc2)cc1 (stereo not drawn),3,8,-5,12150,8.1,0,-5
CCc1cccc2c(C(=O)COC(=O)/C=C/c3ccc(O)c(OC)c3)c[nH]c12,·,·,-9,10020,·,-4,·
COc1ccc(N2C(S)=C(C#N)C(=O)NC2c2ccc(OC)c(OC)c2)cc1 (stereo not drawn),1,10,-31,4834,0.9,3,-8
COc1ccc(OC)c(N=C(C)C2=C(O)COC2=O)c1,·,·,-14,4332,1.3,0,2
CC1(C)C(=O)Nc2ccccc2N1C(=O)COC(=O)/C=C/c1ccc(OC(F)F)cc1,3,2,-11,·,5.5,1,2
CCOCc1nnc(NC(=O)c2ccc3c(c2)OCO3)s1,-2,-5,-19,5803,3.2,-1,0

# Additional structures
SMILES,Mtb hypoxia inh,Mtb hypoxia inh growth,PrP UTR inh,Autofluor counter,RN4220 kill,BJeLR viability,Sa ugtP lethal
O=C(Nc1c2c(nn1-c1ccc(F)cc1)CS(=O)C2)c1ccc2c(c1)OCO2 (stereo not drawn),5,2,-27,5890,-0.2,3,4
COc1ccccc1NC1=Nc2cccc3cccc1c23,3,-2,·,·,0.9,-6,3
O=C(Cc1ccsc1)N1CCc2c([nH]c3ccccc23)C1c1ccccn1 (stereo not drawn),2,0,-42,5006,3.9,4,-4
c1ccc(C2=Nn3c(nnc3-c3cccnc3)SC2)cc1,-2,-3,-19,22262*,5.3,0,2
CN(CCC1CCCCO1)Cc1cn(C)nc1-c1ccc2c(c1)OCCO2 (stereo not drawn),3,1,-32,3127,0.6,-5,7
CN(C)c1ccc(NC(=O)c2cc3c(=O)n4ccccc4nc3n2C)cc1,-96,-38,-4,?,-0.8,4,-6
Cc1ccc(NC(=S)N(CCN2CCCCC2)Cc2ccco2)cc1,-2,13,-10,2411,6.6,5,9
CC(=O)N(CCCN1CCOCC1)Cc1ccncc1,6,-2,-19,4324,4.8,-3,5
COc1ccc(OCC(=O)NNC(=O)C2CCC2)cc1,-16,3,-12,8792,-1.2,·,-1
O=C1C(C=NCc2cccnc2)=C(O)c2ccccc21,·,·,-40,2638,-3.2,-3,2
COCCNC(=O)Nc1ccc2c(c1)N(C)C(=O)c1ccccc1S2,17,6,8,3069,0.6,7,0
O=S1(=O)CCN2N=C(C3CC3)SC2=N1,-6,6,-14,4308,-1.1,0,-13
Cc1c(NC(=O)CSCc2ccc(Cl)cc2Cl)cccc1C(=O)O,5,11,-21,3604,-0.2,-2,9
CC(=O)c1ccc(N2C(=NC(=O)C3CCCCC3)SC3CS(=O)(=O)CC32)cc1 (stereo not drawn),6,6,-24,5301,1.8,7,0
Cc1cc(=O)oc2c(C)c3occc3cc12,3,-2,-22,2981,0.9,7,10
O=C(O)c1ccc(CSc2nc3ccccc3[nH]2)cc1,-10,7,-6,3725,2.5,6,-3
Cc1cccc(N=C2Sc3nc4c(C)c(C)ccc4cc3CN2CCN2CCOCC2)c1,-5,6,-13,10398,-3.2,8,-6
CC(Oc1ccccc1)C(=O)Nc1c2c(nn1-c1ccccc1)CS(=O)C2 (stereo not drawn),4,-4,-28,4191,3.5,-9,0
CC(=O)Nc1ccc(C(=O)n2nc(C)cc2C)cc1,-11,9,-11,15437,1.5,-7,-3
Cc1ccccc1/C=N/N=C1/NC(=O)CCS1,·,·,-40,4267,·,-3,·
CCOC(=O)C1CCN(C(=O)C(C)Sc2ccc(Cl)cc2)CC1 (stereo not drawn),·,·,-1,3075,4.0,2,14
CC(C)CNC(=S)NC1CC2CCCC(C1)N2Cc1ccco1 (stereo not drawn),9,0,-19,9484,5.6,12,15
O=C(COc1ccc(S(=O)(=O)NC2CCCCC2)cc1)N1CCN(c2cccc(Cl)c2)CC1,-1,8,-30,22384*,1.6,6,-12
O=C(CSc1nnnn1-c1ccccc1Cl)Nc1ccc2c(c1)OCCO2,·,·,-17,5946,1.2,-1,-1
Cc1cc(S(=O)(=O)NCC2CCCO2)c(C)cc1Br (stereo not drawn),2,9,-12,3633,4.1,19,10
CCCOc1ccccc1/C=C1/C(=O)ON=C1C,10,4,-47,3593,4.2,-3,10
CCOC(=O)C1CCN(S(=O)(=O)c2ccc(OC)c(C(=O)N3CCCCC3)c2)CC1,-11,-3,-18,3075,2.8,-3,14
CCNC(=O)Cn1cc(C(F)(F)F)cc(Cl)c1=O,3,13,-45,4288,3.5,3,6
O=C(NN=Cc1cc(Cl)cc([N+](=O)[O-])c1O)c1ccc2c(c1)OCO2,7,-6,·,·,0.9,·,9
CCOC(=O)C1CCN(C(=O)CN(c2ccc(OC)c(OC)c2)S(=O)(=O)c2ccccc2)CC1,17,2,-10,3158,5.9,-1,7
Cc1ccc(C)c(NC(=S)NC(C)C(c2ccccc2)N2CCN(C)CC2)c1 (stereo not drawn),-9,6,-12,4722,-4.7,13,-1
CCC(C(=O)OCC(=O)Nc1cc(Cl)ccc1Cl)c1ccccc1 (stereo not drawn),4,7,-8,2554,9.0,5,26
COc1ccc(/C=N/OCC(=O)NC(c2ccccc2)c2ccccc2)c(OC)c1,·,·,-24,10754,·,-18,·

# Source: PubChem
